High-throughput results as filed in PubChem BioAssay.
HIV TAR-Tat: HIV-1 TAR-Tat binding disruption. HIV-1 TAR RNA, Tat peptide displacement FRET; active compounds read high. z-score (no concentration beside the values). 100,000 compounds, 0.6% hits;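 note: score is relative to mean and SD of negative controls; some compounds called inactive have numbers as strong as hits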
CDC25B CDK2 inh: human CDC25B-CDK2/CyclinA binding inhibition; P30305+P24941; z-score (concentration not given with the values); 94,000 compounds, 0.72% hits; AID 1259370; HTRF CDC25B-CDK2/CyclinA binding, anti-His/anti-Flag; active compounds read high;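 note: score is relative to mean and SD of negative controls; strong numbers were not always called active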
* = called active by the depositor; . = no result given.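 Rule for the calls: active = z-score from 3 up in half or more of its runs; inactive = the rest.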

Sequence of screens – HIV TAR-Tat | CDC25B CDK2 inh
CCOC(=O)C1CCCN(c2c(Nc3cc(C)cc(C)c3)c(=O)c2=O)C1 (configuration not stated)
  0.13 | -0.9
Cc1nn(CC(=O)N2CCC(C)CC2)c(=O)c2cc3sccc3n12
  -0.7 | -1.1
O=C(Nc1ccc(Br)cc1)N1CCOc2ccccc21
  0.25 | .
O=C(OCc1cc(=O)n2nc(C3CCCCC3)sc2n1)c1ccco1
  -0.34 | .
CCOCCCNS(=O)(=O)c1ccc2c(c1)NC(=O)CC(C)S2 (configuration not stated)
  -0.53 | .
CN(C)c1cccc(OCc2n[nH]c(=S)n2-c2ccccc2)c1
  . | -1.8
CCc1nn(CC(=O)NC2CCCc3ccccc32)c(=O)c2cc3occc3n12 (configuration not stated)
  2.1 | 0.95
O=C(Nc1nc2ccccc2c(=O)s1)c1ccccc1
  -0.17 | -0.91
N#CCCN(C(=O)c1ccc(Sc2ccccc2)c([N+](=O)[O-])c1)C1CCCCC1
  . | -2.5
COc1ccc(N2C(=O)c3cccnc3C2O)c(OC)c1 (configuration not stated)
  0.91 | 0
CCCN1CNC(=S)N(c2cc(C)ccc2C)C1
  . | -1.6
Cc1nc(NC(=O)c2cc(C(C)C)n(C3CCS(=O)(=O)C3)n2)sc1C (configuration not stated)
  1.1 | -1.8
COc1cccc(Oc2coc3cc(OC(=O)N4CCOCC4)ccc3c2=O)c1
  1.4 | -1.9
Cc1cc(C)cc(C(=O)Nc2nnc3n2CCS3)c1
  0.68 | .
COc1cccc2c1OC1(C)CC2NC(=O)N1c1ccc(C)cc1 (configuration not stated)
  . | 2.7
O=C(CSc1nc(-c2ccco2)nc2cc(=O)[nH]n12)NCCc1nc2ccccc2[nH]1
  -0.26 | .
CCOc1ccc(C(=O)c2ccc(O)c(O)c2O)cc1
  1.8 | .
CCCn1nnc2cc(S(=O)(=O)N3CCCC(C(=O)O)C3)ccc21 (configuration not stated)
  1.4 | 0.96
C[C@]12C=CC(=O)C=C1CC[C@@H]1C2=CC[C@]2(C)[C@@H](C(=O)CN3CCN(c4cc(N5CCCC5)nc(N5CCCC5)n4)CC3)CC[C@@H]12
  -6.6 | -1.9
CC(C)OC(=O)CSc1nnc(-c2ccccc2)o1
  3 | -1.4

Brought forward from above: five compounds, then new ones.
Sequence of screens – HIV TAR-Tat | CDC25B CDK2 inh
O=C(CSc1nc(-c2ccco2)nc2cc(=O)[nH]n12)NCCc1nc2ccccc2[nH]1
  -0.26 | .
CCOc1ccc(C(=O)c2ccc(O)c(O)c2O)cc1
  1.8 | .
CCCn1nnc2cc(S(=O)(=O)N3CCCC(C(=O)O)C3)ccc21 (configuration not stated)
  1.4 | 0.96
C[C@]12C=CC(=O)C=C1CC[C@@H]1C2=CC[C@]2(C)[C@@H](C(=O)CN3CCN(c4cc(N5CCCC5)nc(N5CCCC5)n4)CC3)CC[C@@H]12
  -6.6 | -1.9
CC(C)OC(=O)CSc1nnc(-c2ccccc2)o1
  3 | -1.4
O=C1C2C3c4ccccc4C(C(=O)O)(c4ccccc43)C2C(=O)N1c1cccc(Cl)c1 (configuration not stated)
  0.47 | -0.18
Cc1nc2ccccc2c2c1C(=O)N(c1ccc(F)c(F)c1)C2=O
  2.8 | -1.4
Cc1ccc(NS(=O)(=O)c2cc(-c3ccc(=O)[nH]n3)cc(C)c2C)c(C)c1
  1.9 | .
c1ccc(-c2nnc(CN3CCN(c4ccccn4)CC3)o2)cc1
  1.5 | -0.29
C=CCn1c(C2CC(=O)N(c3cccc(Cl)c3)C2)nc2ccccc21 (configuration not stated)
  1.1 | -1.1
Cc1cc(=O)n(Cc2cc(=O)n3cc(Cl)ccc3n2)c2c1c(C)nn2-c1ccccc1
  0.15 | .
O=C(NCCCN1CCOCC1)c1c(O)c2cccc3c2n(c1=O)CC3
  1.3 | .
CN(C)C=Nc1cc(N(C)C)nc2ccccc12
  . | -3
Clc1ccc(OCc2nc3c4cnn(-c5ccc(Cl)cc5)c4ncn3n2)cc1
  0.2 | 0.26
Cc1ccc2c(=O)c(CN3CCN(Cc4ccccc4)CC3)c(C)[nH]c2c1C
  . | -2
CCOC(=O)N1CCC(NC(=O)CCCn2nc(C)n3c(cc4sccc43)c2=O)CC1
  0.11 | -0.28
OC(CNCc1ccc(-c2cccs2)cc1)C(F)(F)F (configuration not stated)
  . | -1.5
O=C1C(c2ccccc2)=C(N2CCN(c3ccccn3)CC2)c2ccccc21
  -2.1 | -1.7
Cc1nnc(NCc2cccs2)c2c1nnn2Cc1ccc(F)cc1
  1.1 | -0.54
C#CCOC(=O)Nc1nc(C)oc1C(F)(F)F
  . | -2.2
CCc1ccc(N2CCn3c2nc2c3c(=O)n(C)c(=O)n2C)cc1
  3.4 | .
COc1ccc(C2C=C(C(=O)O)Nc3nnnn32)c(OC)c1 (configuration not stated)
  -0.03 | .
Cc1ccc2c(c1)N(S(=O)(=O)c1ccc3[nH]c4c(c3c1)CCCC4)CCO2
  0.74 | .
Cc1cc(C)c2c(=O)[nH]n(C3CCOC(C)(C)C3)c2n1 (configuration not stated)
  -0.27 | -2.4
NC(/C=C/c1cc(C(F)(F)F)cc(C(F)(F)F)c1)=N\O
  . | -2.7

Next part; it opens with the 3 that closed the last part.
Sequence of screens – HIV TAR-Tat | CDC25B CDK2 inh
Cc1ccc2c(c1)N(S(=O)(=O)c1ccc3[nH]c4c(c3c1)CCCC4)CCO2
  0.74 | .
Cc1cc(C)c2c(=O)[nH]n(C3CCOC(C)(C)C3)c2n1 (configuration not stated)
  -0.27 | -2.4
NC(/C=C/c1cc(C(F)(F)F)cc(C(F)(F)F)c1)=N\O
  . | -2.7
Cc1cc(C)n(-c2ccccc2)c2nn(-c3ccccc3)c(=O)c1-2
  . | -1.8
S=c1[nH]nc(-c2cccc(Cl)c2)o1
  -0.04 | -1.7
CCOC(=O)c1c(C)c(C(=O)N2CCCCCC2)c(C)n1C
  . | -2.1
CS(=O)(=O)CC[C@@H](C(=O)NCc1ccco1)N1Cc2ccccc2C1=O
  1.8 | -1.9
O=C(O)c1nc(N2CCCC2)c2ccccc2n1
  2.3 | -0.65
CCCN1CCN(CCCNC(=O)C2=C(C)C(=O)OC23CCN(C(C)=O)CC3)CC1
  0.08 | .
CC1CCN(C(=O)CN2C(=O)CSc3ncccc32)CC1
  1.2 | 1.5
O=C(NC1CCS(=O)(=O)C1)C1CCN(c2nccc(C(F)(F)F)n2)CC1 (configuration not stated)
  . | -1.2
N#CC(C#N)=CNC(CO)C(O)c1ccc([N+](=O)[O-])cc1 (configuration not stated)
  . | -0.58
Cc1cccc(Cn2cc3c(=O)n(Cc4cccc(F)c4)nc-3c3ccccc32)c1
  -4.1 | .
O=C(C1CCCC1)N1CCN(Cc2noc3ccccc23)CC1
  1.2 | .
COc1ccc(C2SCC(=O)N2c2nnc(C34CC5CC(CC(C5)C3)C4)s2)cc1 (configuration not stated)
  . | -0.81
Cc1cccc(-c2nc3nc(C)cc(N4CCCCC4)n3n2)c1
  0.52 | -0.02
O=c1sc(N2CCN(c3ccccc3F)CC2)nc2ccsc12
  1.7 | 0.09
O=C1/C(=C\c2ccccc2)N=C(c2ccccc2)N1c1ccccc1
  . | -0.32
O=C(COCc1cc(-c2ccco2)on1)Nc1cc(-c2ccccc2Cl)no1
  -4.6 | .
O=C(Nc1ccc(Cl)cc1)N1CCOC1c1cccs1 (configuration not stated)
  . | -2.8
Cn1nc(-c2ccccc2)cc1NC(=O)c1ccccc1
  . | -1.4
CCOC(=O)c1cn(C)c2cc(F)c(F)cc2c1=O
  1.4 | -1.6
O=C(CSc1nc2ccccc2c(=O)[nH]1)NC1CCCCC1
  0.38 | .
CNC(=O)Cn1ncc2c3ccccc3n(C)c2c1=O
  . | -0.84
CC(=O)N1N=C(c2cc3ccccc3o2)OC1c1c(C)[nH]c(=O)[nH]c1=O (configuration not stated)
  1.6 | .
O=C(COc1ccc(Cl)cc1)Nc1nnc2n1CCCS2
  0.4 | .
COc1ccc(NC(=O)CS(=O)(=O)c2ccc3c(c2)S(=O)(=O)N=CN3)cc1Cl
  3 | .
Cc1nn(CCCC(=O)N2CCCC2)c(=O)c2c1sc1ccccc12
  4.9 | -1.1
Cc1c(C(=O)N2CCC(C)CC2)c(S(=O)(=O)N2CCc3ccccc32)c(C)n1C
  1.4 | .
CCC(C)S(=O)(=O)c1oc(-c2cccs2)nc1S(=O)(=O)c1ccc(F)cc1 (configuration not stated)
  -0.99 | -3
O=[N+]([O-])c1ccc(N2CCN(c3ccccc3Cl)CC2)c([N+](=O)[O-])c1
  . | -4.3
O=C(CSc1ccc([N+](=O)[O-])cc1Cl)NCc1ccccc1
  . | 15*
CC1(C(=O)O)NC(c2ccc(O)cc2O)C2C(=O)N(c3ccc(Br)cc3)C(=O)C21 (configuration not stated)
  -0.85 | -1.6
Cc1cc(C)cc(Oc2cc(Cl)ncn2)c1
  0.26 | -1.2
COc1ccccc1-c1nc(-c2ccc(Cl)cc2)no1
  0.36 | 0.45
Cc1ccc(C(C)C)c(OCC(=O)N2N=C3CCC(C)CC3C2(O)C(F)(F)F)c1 (configuration not stated)
  . | -0.9
O=C(Nc1c(C(=O)c2ccccc2)oc2ccccc12)c1ccccc1F
  1.2 | -0.67
CC1=C(c2ccc(F)cc2)S(=O)(=O)NC1=NC1CCCCC1C (configuration not stated)
  -0.03 | .
O=C(CSc1nnc2scc(-c3ccc(Cl)cc3)n12)c1ccc2c(c1)OCO2
  -1.8 | -1.1
CC(C)CC(=O)Nc1ccc(-n2cnnn2)cc1
  1.2 | 0.84
CCOCCCNc1nc2c(S(=O)(=O)c3ccccc3)nnn2c2ccc(Cl)cc12
  -1.2 | -0.92
CC1=C(C(=O)NCCCOC(C)C)C2(CCN(S(C)(=O)=O)CC2)OC1=O
  0.79 | .
CN(CC(=O)N1CCc2ccccc2C1)S(=O)(=O)c1ccc2[nH]c3c(c2c1)CCCC3
  0.35 | .
Cc1ccc2cc3c(nc2c1)N(C(=O)c1ccc(Br)cc1)CC3
  -1.1 | -1.6
O[C@@H]1C2C3CC4C5C3C1C5[C@@H](O)C42 (some centres not stated)
  . | -2.6
O=C(NCC1CCCO1)N1CCOCC1 (configuration not stated)
  0.58 | -0.85
CSc1cccc(NC(=O)Cn2cnc3nc4c(cc3c2=O)CCCC4)c1
  0.68 | .
Cc1cc(C)n2ncc(C(=O)Nc3cccnc3)c2n1
  -2.4 | .
Cc1cccc(NC(=O)c2cc(-c3cccnc3)nc3ccccc23)n1
  0.96 | .
Cn1c(=O)c(C#N)cn(-c2ccccc2)c1=O
  . | -1.1
CCN(CC)c1ccc(Nc2nc(-c3c(C)nc4ncccn34)cs2)cc1
  0.44 | -4
FC(F)(F)c1cnc(N2CCSCC2)c(Cl)c1
  . | -2
CCN(CC)CCn1c(C)c(C)c2c1ncn1nc(-c3ccc(OC)c(OC)c3)nc21
  1.6 | 0.64
COC(=O)c1c(-c2cccs2)csc1NC(=O)C1CC1
  -1.3 | -0.38
Cc1ccc(S(=O)(=O)Nc2cc(Cl)c(O)c3ncccc23)cc1
  1.5 | 14*
CCOC(=O)C1CCCN(C(=O)c2ccc(CS(=O)(=O)Cc3ccccc3C)o2)C1 (configuration not stated)
  . | -0.53
CCn1cc(C(=O)O)c(=O)c2cc(S(=O)(=O)N3CCOCC3)ccc21
  . | -2.4
CC1CCCN(C(=O)C2CCN(S(=O)(=O)c3ccc4c(c3)CCC(=O)N4)CC2)C1 (configuration not stated)
  . | -2.7
CCOc1cc(S(=O)(=O)Nc2ccccn2)ccc1F
  0.76 | -0.5
Cc1nn(C)c2c1c(C(F)(F)F)cc(=O)n2CCN1CCOCC1
  0.85 | .
COc1cc2nc(NCCC(C)C)n3nc(-c4ccccc4)nc3c2cc1OC
  0.64 | 0.24
Cn1c(=O)c2c([nH]c(=O)n2Cc2ccccc2F)n(C)c1=O
  . | 0.48
Cc1ccc(CNS(=O)(=O)c2cc3[nH]c4c(c3cc2C)C(=O)CC(C)(C)C4)o1
  -1.3 | .

The list continues.
Sequence of screens – HIV TAR-Tat | CDC25B CDK2 inh
ON(Cc1ccccc1)Cc1ccccc1
  . | -1.3
CCCN(CCC)c1nc(C)nc2c1sc1nc3c(cc12)COC(C)(C)C3
  -0.4 | .
COCCCNC(=O)CN1C(=O)CSc2ncccc21
  2.3 | -2.7
COc1nc(N(C)S(=O)(=O)c2ccc(C)cc2)nc(C)c1Br
  0.25 | -2.1
C=CCOc1ccc(C2C(C#N)=C(N)Oc3cc(O)ccc32)cc1Cl (configuration not stated)
  -0.94 | -1.9
CCCC(=O)Nc1ccc(NC(=O)c2sc3ccccc3c2Cl)cc1
  . | -1.3
Cc1cc(C)c2oc(C(=O)N(Cc3ccc(C(C)(C)C)cc3)C3CCS(=O)(=O)C3)cc(=O)c2c1 (configuration not stated)
  1.2 | -1.9
Cn1c(SCC(=O)NC2CCCC2)ncc(C(=O)Nc2ccc(F)cc2)c1=O
  0.75 | .
CCOC(=O)N1CCC(NC(=O)CNC(=O)c2cccs2)CC1
  1.1 | .
O=C(N/C(=C\c1ccc(-c2ccccc2[N+](=O)[O-])o1)C(=O)N1CCOCC1)c1ccccc1
  . | 0.07
O=S(=O)(c1cccc2cccnc12)N1CCCC1c1ccc(F)cc1 (configuration not stated)
  . | -1.8
CC1CN(Cc2nc3c(c(=O)n(C)c(=O)n3C)n2Cc2cccc3ccccc23)CC(C)O1 (configuration not stated)
  1.5 | -0.64
Cc1cn2c(=O)c(S(=O)(=O)Nc3ccc(N4CCOCC4)cc3)c(C)nc2s1
  0.35 | .
O=C1CCCC2=C1C(c1ccc(F)cc1)c1c([nH]n(-c3ccccc3)c1=O)N2 (configuration not stated)
  . | -3.5
CCOC(=O)c1c(NC(=O)C2=CC(c3ccc(F)cc3)=NS(=O)(=O)N2C)sc(C)c1C
  -0.39 | -1.7
O=S1(=O)c2cccc3cccc(c23)N1Cc1cc2c(cc1Cl)OCO2
  0.77 | -0.42
CC(C)c1ccc(C2c3c(oc4ccccc4c3=O)C(=O)N2Cc2ccc3c(c2)OCO3)cc1 (configuration not stated)
  0.59 | -0.64
